Screens deposited in PubChem by National Center for Advancing Translational Sciences (NCATS).
D2 potentiator: potentiates the human D2 dopamine receptor allosterically | DiscoveRx D2 beta-arrestin cells, luminescence, 90 min; 100% = 57 uM dopamine signal | actives 0.23% (n = 360,000) | P14416 | potentiation, % (no concentration beside the values); active = potentiation of 50% or more; inconclusive = 30% to 50%; inactive = 30% or less;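 further: compound concentration not given in the record; tested on top of an EC20 dose of dopamine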
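PathHunter D2 cells, attached overnight at 37 deg C, received compound in DMSO plus dopamine at EC20 (50 nM final) for 90 min at 37 deg C. Beta-arrestin recruitment was read as luminescence after 1 h with detection reagent at ambient temperature.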
PINK1 modulator: PINK1 expression modulation | PINK1 immunofluorescence, high-content cytometry, 24 h | Potency, µM (series often up to 76.6 µM), for the others: top-dose activation (PINK1 increase), actives largely listed as activators | actives 0.2% (n = 410,000) | AID 624263; active = well fitted activation curve with a large enough effect; inconclusive = small, poorly fitted or top-dose-only effect; inactive = flat fitted curve, though single readings scatter; cell line not stated here;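 further: potency means the concentration at half of the fitted maximal effect; % of control where 0% means no effect; nearly all actives have a fitted effect of over 65% in size; a mitochondrial uncoupler was the plate control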
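PINK1 protein level read as immunofluorescence by microplate cytometer in a fixed, stained stable cell line after 24 h exposure to five compound concentrations, with CCCP as control.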
Sfp inh: Sfp phosphopantetheinyl transferase inhibition; Q9F4F7; Biochemical Sfp PPTase activity, qHTS; Potency, µM, inactives show max response, negative = inhibition, hits mostly inhibitors; actives 3.5% (n = 310,000); AID 1490; active means well fitted inhibition curve with a large enough effect; inconclusive means small, poorly fitted or top-dose-only effect, or another doubt; inactive means no such curve, though single readings can be large or run the other way;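 further: the enzyme is Sfp with the accession as filed and its product quenches rhodamine fluorescence; potency means the concentration at half of the fitted maximal effect; 0% = enzyme reaction without inhibitor and -100% = no enzyme wells; top concentration of the series not given in the record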
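Compounds were incubated with enzyme (final 15 nM) for 15 min at room temperature before substrate addition started the reaction. Fluorescence at 525 nm excitation, 598 nm emission was recorded immediately and after 30 minutes.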
D2 ag: human D2 receptor agonism in beta-arrestin assay; activation, % (test concentration not listed); AID 624465; actives 0.084% (n = 360,000); P14416; DiscoveRx PathHunter D2 beta-arrestin, luminescence, 90 min; 100% = 57 uM dopamine signal; in the data active = activation above about 40%; inconclusive = about 15% to 40%; inactive = below about 15%; further: compound concentration not given in the record; the text of the record calls up to 30% inactive
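Agonist mode: compounds alone added to overnight-plated D2 PathHunter cells for 90 min at 37 C, with 57 uM final dopamine (EC100) defining full response. Beta-arrestin recruitment detected by chemiluminescent reagent, read after 1 h at ambient temperature.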
CtBP-E1A inh: inhibitors of CtBP/E1A interaction | AlphaScreen GST-E1A/His-CtBP binding, 1536-well; stronger effect = lower value; control for the full effect not named in the record | activity change, % (no concentration beside the values) | actives 0.49% (n = 340,000) | AID 651724; in the data active means activity change below about -65%; inconclusive means about -30% to -65%; inactive means above about -30%; further: on the % scale 0 is the no-effect control and ±100 the full control effect; compound concentration not given in the record
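Steps: dispense buffer (Tris pH 8.0, NaCl 300 mM, TCEP 1 mM, BSA, Tween 20); add 5X protein mix (GST-E1A, His-CtBP, 125 nM each); pin 23 nL compound; 2 h at 37 °C, dark; add 5X beads (50 ug/mL); 1 h; read.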
TRPV1 PAM: human TRPV1 potentiation. TRPV1-expressing cells, Fluo-8 calcium influx, capsaicin EC20 potentiation; host cell line not named in the record; control for the full effect not named in the record. potentiation, % at 8.33 µM. actives 0.02% (n = 320,000). AID 540277; active means potentiation above 80%; inconclusive means 30% to 80%; inactive means below 30%; further: 0% is about no effect
Target sequence (Q8NER1 whole entry, looked up): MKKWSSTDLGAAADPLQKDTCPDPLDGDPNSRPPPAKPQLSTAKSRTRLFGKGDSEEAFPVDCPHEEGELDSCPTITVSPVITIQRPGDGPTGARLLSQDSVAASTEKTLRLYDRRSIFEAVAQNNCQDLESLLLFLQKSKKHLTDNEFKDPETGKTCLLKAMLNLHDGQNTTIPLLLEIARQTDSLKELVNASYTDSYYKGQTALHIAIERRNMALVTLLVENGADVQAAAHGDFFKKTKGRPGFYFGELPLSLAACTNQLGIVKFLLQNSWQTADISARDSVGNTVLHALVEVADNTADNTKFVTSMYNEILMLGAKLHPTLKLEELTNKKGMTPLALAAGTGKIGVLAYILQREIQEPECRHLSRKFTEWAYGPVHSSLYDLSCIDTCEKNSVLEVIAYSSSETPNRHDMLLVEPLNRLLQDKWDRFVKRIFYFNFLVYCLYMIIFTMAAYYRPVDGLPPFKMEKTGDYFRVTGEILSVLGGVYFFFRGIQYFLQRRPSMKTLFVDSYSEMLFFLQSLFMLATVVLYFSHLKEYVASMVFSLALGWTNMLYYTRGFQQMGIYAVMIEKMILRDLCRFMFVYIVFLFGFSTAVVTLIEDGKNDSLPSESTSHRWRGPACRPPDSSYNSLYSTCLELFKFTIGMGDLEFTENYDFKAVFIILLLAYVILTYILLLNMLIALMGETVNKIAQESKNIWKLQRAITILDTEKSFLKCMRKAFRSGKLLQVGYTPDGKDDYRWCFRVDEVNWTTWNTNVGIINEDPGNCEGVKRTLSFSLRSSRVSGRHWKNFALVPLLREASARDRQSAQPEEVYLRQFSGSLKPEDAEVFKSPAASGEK
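Fluo-8 calcium influx in TRPV1-expressing cells, kinetic read (ex 480/em 520 nm). Compound added and read 3 min for agonist activity, followed by capsaicin at EC20 final and 2 min further read for enhancement.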
Six1-Eya2 blk: Six1/Eya2 interaction inhibition; Q15475+O00167; AlphaScreen GST-Six1/His-Eya2 binding, biochemical; stronger effect = lower value; control for the full effect not named in the record; activity change, % (no concentration beside the values); actives 0.56% (n = 360,000); in the data active = activity change below about -65%; inconclusive = about -30% to -65%; inactive = above about -30%; further: on the % scale 0 is the no-effect control and ±100 the full control effect; compound concentration not given in the record
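GST-Six1 + His-Eya2 (5X stock: 250/500 nM); Tris pH 8.0, 300 mM NaCl, 0.05% BSA, 0.02% Tween 20; GSH donor/Ni acceptor beads; 1 h 37 °C dark; AlphaScreen readout.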
* hit, by the source's call; ? = inconclusive; nt = no result given; & = joins results of further samples; [ ] = another dose, or the depositor's remark.

Results follow in this order: D2 potentiator	PINK1 modulator	Sfp inh	D2 ag	CtBP-E1A inh	TRPV1 PAM	Six1-Eya2 blk
CCOc1ccc2[nH]c(=O)c(C(c3nnnn3Cc3ccco3)N3CCC(C)CC3)cc2c1 (stereo not given)
    -13	-1.1%	3.5µM*	-5.3	0	18	16
Cc1cc(C)cc(OCC(=O)O/N=C(\N)c2ccccc2Cl)c1
    -3	5.6%	-14%	-2.1	63	0	62
CC(NC(=O)Cn1cc(C(F)(F)F)ccc1=O)c1ccc(F)cc1 (stereo not given)
    -7	-1.6%	11%	-1.0	-1	-30	16
Cc1cccc(Cn2c(Sc3nc(C)cs3)nc3c2c(=O)[nH]c(=O)n3C)c1
    1	-1.8%	13%	-1.6	4	4	1
CN(C)c1ccc(/C=C(/NC(=O)c2ccccc2)C(=O)NCCCn2ccnc2)cc1
    0	1.0%	1%	1.6	nt	12	-6
COc1ccc(NC(=O)C2CCCN(S(C)(=O)=O)C2)c(OC)c1 (stereo not given)
    -7	1.4%	10%	-2.3	-2	6	-1
Cc1cc(=O)[nH]c2sc(C(=O)N3c4ccccc4CC3C)c(N)c12 (stereo not given)
    -7	-0.5%	nt	-2.8	-3	nt	-11
COc1ccc(CNCCC(c2ccccc2)C2CCOC(C)(C)C2)cc1 (stereo not given)
    0	5.5%	7%	1.7	6	3	11
CC1CCCN(CCOCCOc2ccc(Br)cc2Cl)C1 (stereo not given)
    -42	-1.0%	-25%	0.3	-20	-3	6
Cc1ccc(C(=O)NCCC(=O)N2CCCC2)cc1
    -14	0.0%	18%	0.1	nt	1	11
CCc1nnc(NC(=O)c2ccc(COc3ccc(C)cc3)o2)s1
    0	-1.5%	?	-3.0	12	-22	3
CCOC(=O)N1CCN(C(=O)CCCn2c(=S)[nH]c3ccccc3c2=O)CC1
    -8	0.1%	?	-0.7	1	-3	-8
COCCn1c(C)nnc1SCC(=O)NNC(=O)c1ccc(Cl)cc1
    -5	5.0%	7%	0.3	8	-7	3
CCOC(=O)CSc1nc(-c2cccs2)nc2c1c(=O)n(C)c(=O)n2C
    0	1.9%	19%	-3.9	1	-5	2
O=C(CSc1nnc(COc2ccc(Cl)cc2)o1)Nc1nccs1
    -15	5.1%	nt	-4.9	?	nt	-87*
Cc1cc(S(=O)(=O)NCc2ccco2)c(C)s1
    -8	0.2%	8%	-3.6	-1	nt	-16
O=[N+]([O-])c1ccc(O)c(C2CCCCC2)c1
    -7	?	nt	-5.9	-4	nt	-3
Cc1ccc2[nH]c3c(=O)n(CC(=O)NCc4ccco4)ncc3c2c1
    -4	2.2%&1.3%	12%	-4.0	nt	-1	-19
COc1ccccc1N(CC(O)Cn1nc(C)cc1C)S(=O)(=O)c1ccccc1 (stereo not given)
    5	0.5%	19%	-2.5	5	8	3
Cc1ccc(OCC(=O)NCCCNC(=O)c2ccc(C)nc2)cc1
    1	-0.4%	7%	3.9	5	-5	26
Nc1ncnc2c1ncn2[C@@H]1O[C@H](C(=O)N[C@H](CO)Cc2ccc(O)cc2)[C@@H](O)[C@H]1O
    2	2.5%	nt	2.4	4	nt	0
CCCC1=[N+](CC(C)=O)CCn2c(C)ccc21
    -8	0.1%	5%	-0.8	nt	6	-8
Nc1nc(SCC(=O)N2CCc3ccccc3C2)[nH]c(=O)c1-c1ccccc1
    -13	-2.6%[38.3 µM]	?	1.7	8	-1	-13
CCOC(=O)N1CCC(N2CC34C=CC(O3)C(C(=O)Nc3ccc(C(C)C)cc3)C4C2=O)CC1 (stereo not given)
    -1	-0.7%	14%	0.2	-4	nt	-4
CC(/C=C/c1ccc2c(c1)OCO2)=N\NC(=O)c1ccccc1
    13	5.7%	4%	-0.2	9	?	-2
CS(=O)(=O)N(CC(=O)Nc1ccccc1C(=O)N1CCOCC1)c1ccccc1
    -9	-0.7%	8%	0.5	7	-1	13
CC1CN(S(=O)(=O)c2cc(C(=O)NC(C)c3cccnc3)ccc2Cl)CC(C)O1 (stereo not given)
    -15	-0.3%	nt	1.7	8	nt	-15
CCCc1nnc(NC(=O)c2ccc(S(=O)(=O)N(C)c3ccccc3OC)cc2)s1
    1	0.3%	nt	-6.4	-7	13	8
COc1ccc(NS(=O)(=O)c2cccc(-c3nnc(-c4ccccc4)o3)c2)cc1
    -1	0.0%	2%	-3.9	-1	-6	-14
CCC1(C)OC(=O)N2CCc3c(C)[nH]c4c(C)ccc(c34)C21C (stereo not given)
    -4	-0.4%	-1%	-5.4	-4	-10	-1
O=C(Oc1cccnc1)c1ccc(Cl)cc1
    -10	nt	21%	-3.2	7	-8	3
CC1CCCCC1NC(=O)c1cc(S(=O)(=O)N2CCCCC2)ccc1N1CCOCC1 (stereo not given)
    -5	0.5%	nt	-2.8	nt	-23	4
COc1cccc(-c2nnn(CC(C)=O)n2)c1
    -17	-2.3%	8%	-4.9	1	6	0
NC(=O)c1sc(=S)n(-c2ccc(Br)cc2)c1N
    -14	3.7%	-13%	-6.4	-14	nt	-1
O=C(CN(Cc1ccc2c(c1)OCO2)C(=O)CNS(=O)(=O)c1ccccc1)NCC1CCCO1 (stereo not given)
    -16	-1.7%	13%	1.6	1	4	5
C/C(N)=C(/C#N)C(=O)COC(=O)c1cc2c(s1)CCC(C)C2 (stereo not given)
    6	2.7%	-1%	-3.6	-14	10	-3
COc1ccc(C(=O)COC(=O)c2cnc(C)cn2)cc1OC
    -3	-2.2%	nt	-0.4	-5	0	2
O=C(COC(=O)CNC(=O)c1ccccc1)Nc1cccc(Br)c1
    -8	2.9%	14%	2.0	6	2	1
COc1ccccc1NC(=O)c1c(Nc2ccccc2C)sc(C(=O)Nc2cccc(Cl)c2)c1N
    -1	?	15%	5.7	-6	2	-1
CCC1(CC)NC(=O)N(CC(=O)OCC(=O)Nc2ccc(F)c(F)c2F)C1=O
    -24	1.5%	-14%	-6.1	4	9	2
O=[N+]([O-])c1ccc(Sc2nc3ccccc3o2)c([N+](=O)[O-])c1
    8	-1.0%[38.3 µM]	-17%	5.9	4	9	-4
CCCCCCC1CC(CSC(=N)N)OC1=O (stereo not given)
    -12	?	15%	1.2	5	-9	13
CC(=O)N1CCN(C(=O)COc2ccc(N(C)S(=O)(=O)c3cccs3)cc2)CC1
    -7	-0.5%	8%	-3.1	nt	-5	11
O=C(Cn1cc([N+](=O)[O-])cn1)Nc1ccc(Cn2cc(Br)cn2)cc1
    -12	4.3%	1%	-3.3	1	3	0
Fc1ccc(CNc2nc3ccccc3n3cnnc23)cc1
    -3	7.4%	-3%	-2.3	12	9	-1
COC(=O)/C=c1/s/c(=C(/C#N)C(=O)N2CCOCC2)n(-c2ccccc2)c1=O
    -4	-1.8%	20%	-3.1	0	3	4
COc1ccc(C2C(C#N)=C(N)N(c3sc4c(c3C#N)CCCC4)C3=C2C(=O)CC(C)(C)C3)cc1OC (stereo not given)
    -9	4.7%	-13%	-0.5	-14	-7	-12
CC1CCc2c(C(=O)OCC(=O)Nc3cccc(S(=O)(=O)N4CCCCCC4)c3)csc2C1 (stereo not given)
    20	1.5%	21%	3.1	-1	8	-7
Cc1ccc(S(=O)(=O)N2CCN(C(=O)COC(=O)CCCOc3ccccc3)CC2)c(C)c1
    4	-0.6%	nt	-1.9	nt	1	-1
CC1=C(C(=O)Nc2cccnc2)C(c2cccnc2)n2ncnc2N1 (stereo not given)
    -14	-0.1%	8%	0.3	0	-1	7
COc1ccc(C2Nc3ccccc3C(=O)N2Cc2ccco2)cc1COc1ccc(NC(C)=O)cc1 (stereo not given)
    -5	0.0%&-0.2%	?	-0.3	-3	9	-12
CCOc1ccc(NC(=O)c2ccc(CNc3c(N4CCCC4)c(=O)c3=O)cc2)cc1
    -16	0.4%	9%	-4.2	nt	-5	15
O=C(CN(C(=O)C1CSC(=O)C1)c1cccc(F)c1)NC1CCCC1 (stereo not given)
    -2	2.2%	20%	-2.5	nt	-8	-1
CCCn1nc2cc(C(=O)NC3CCc4ccccc43)ccc2c1OCC (stereo not given)
    -9	0.5%	4%	-2.4	2	7	2
CC1CC(C)CN(C(=O)CCNC(=O)c2ccccc2Cl)C1 (stereo not given)
    -4	-0.2%	-6%	3.1	6	1	5
O=C(Nc1nc(-c2ccc(Cl)s2)cs1)c1cccs1
    -4	?	?	0.4	0	-9	-4
O=C(Nc1ccccc1-c1ccccc1)NC1CC2CCCC(C1)N2Cc1ccc(F)cc1 (stereo not given)
    -25	-1.9%	-4%	-1.4	-6	-2	-9
O=C(O)CCSc1nnc(-c2ccncc2)n1-c1ccccc1
    3	-0.1%	3%	-2.8	1	-22	0
CCOC(=O)Cn1c(=NC(=O)CN2C(=O)CCC2=O)sc2cc(S(N)(=O)=O)ccc21
    -8	3.3%	-4%	-3.3	-16	7	7
Cc1ccc2c(ccn3cc4c(c(=O)n(C)c(=O)n4C)c23)c1
    0	6.2%	-1%	2.5	-20	18	-3

Given bar-delimited: three of the compounds above.
canonical_smiles | D2 potentiator | PINK1 modulator | Sfp inh | D2 ag | CtBP-E1A inh | TRPV1 PAM | Six1-Eya2 blk
COc1ccc(C2Nc3ccccc3C(=O)N2Cc2ccco2)cc1COc1ccc(NC(C)=O)cc1 (stereo not given) | -5 | 0.0%&-0.2% | ? | -0.3 | -3 | 9 | -12
CCCn1nc2cc(C(=O)NC3CCc4ccccc43)ccc2c1OCC (stereo not given) | -9 | 0.5% | 4% | -2.4 | 2 | 7 | 2
Fc1ccc(CNc2nc3ccccc3n3cnnc23)cc1 | -3 | 7.4% | -3% | -2.3 | 12 | 9 | -1

(next part)
Results follow in this order: D2 potentiator	PINK1 modulator	Sfp inh	D2 ag	CtBP-E1A inh	TRPV1 PAM	Six1-Eya2 blk
COc1cccc(OCC(=O)Nc2cc(NC(=O)COc3cccc(OC)c3)cc(C(=O)O)c2)c1
    9	0.4%	-29%	2.3	nt	?	-2
Cc1nn(Cc2ccc(Cl)cc2Cl)c(C)c1NC(=O)Cn1nc([N+](=O)[O-])c(Cl)c1C
    0	10%	-14%	-0.1	7	-4	7
CSc1nsc(/C=C/Nc2ccc(F)cc2F)c1C#N
    -4	6.2%	-1%	0.2	-14	8	-3
CN(C)C(CNC(=O)c1cc(S(=O)(=O)N(C)c2ccccc2)ccc1Cl)c1cccs1 (stereo not given)
    -9	-0.1%	-2%	-3.8	-1	-17	-8
